Sa growth inh: S. aureus growth inhibition at 42 and 30 °C, primary screen, LtaS inhibitor project, RN4220, two temperatures. OD600, 20 h, 42 °C; active compounds read low. relative growth, % (concentration not given with the values). 0.53% of 170,000 active. AID 720641, 2013;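 active = growth at 42 °C up to 50% and 20 or more points under that at 30 °C, or under 10% at both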;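 note: 300 nL library stock went into each well; scaled to the means of positive and negative controls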
GIV-Gai inh: inhibitors of GIV peptide binding to Galpha-i3, primary screen, biochemical, fluorescence polarization, FITC-GIV GBA peptide, rat Galphai3; AID 1224905, 2016; percent of control (FP), % (no concentration beside the values); Guanine nucleotide-binding protein G(i) subunit alpha-3 (Rattus norvegicus), P08753; 90 min; active compounds read low; scaled: aluminum fluoride 0%, vehicle 100%; 0.42% of 210,000 active;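 active = replicate mean at 85% of control or lower, very high polarization wells dropped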;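 note: wells of about 15 µL received 100 nL stock; the first replicate is given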
Target sequence (P08753 whole entry, looked up): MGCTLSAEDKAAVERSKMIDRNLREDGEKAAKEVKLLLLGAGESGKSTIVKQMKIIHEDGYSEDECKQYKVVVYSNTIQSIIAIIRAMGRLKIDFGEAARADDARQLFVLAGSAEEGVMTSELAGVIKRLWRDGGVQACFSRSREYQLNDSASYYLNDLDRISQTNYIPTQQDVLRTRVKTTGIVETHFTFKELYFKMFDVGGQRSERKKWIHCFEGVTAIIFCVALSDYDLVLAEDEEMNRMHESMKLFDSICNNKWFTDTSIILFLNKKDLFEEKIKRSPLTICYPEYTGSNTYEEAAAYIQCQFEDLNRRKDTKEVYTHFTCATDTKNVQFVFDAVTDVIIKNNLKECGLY
HCMV NEC inh: inhibitors of HCMV UL50-UL53 interaction, biochemical, HTRF; HCMV UL50-UL53 nuclear egress complex (human cytomegalovirus); normalized percent inhibition; inhibition, % (no concentration beside the values); 0.15% of 190,000 active; AID 1918969, 2023;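 active = both replicates at 50% or more, plus weaker picks with an unusually low signal ratio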;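 note: stock transfer was 100 nL into about 20 µL; 0% = negative control wells and 100% = wells with untagged competitor protein; inactives centre near -12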
Sa growth inh second temp: also measured in Sa growth inh; calls as there; relative growth, %; measured here: growth at 30 °C;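 optical density after 20 h as mean of two plates; 100% = untreated growth and lower means inhibition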
Starred values were filed as active, the others as inactive; x = no result given; & = joins results of further samples. Not a hit list; 0.79% or so of the library scored in one or more.

Structure | GIV-Gai inh | Sa growth inh | HCMV NEC inh | Sa growth inh second temp
CCOC(=O)c1ccc(NC2Nc3cc(C)nn3S2)cc1 (stereo unspecified) | x | 108 | 7 | 87
CC(=O)N1CCCc2cc(S(=O)(=O)Nc3ccc4c(c3)OCO4)ccc21 | 113 | 99 | 1 | 81
COc1cc(C)c(C)cc1S(=O)(=O)Nc1ccc(-c2ccc(N3CCCC3)nn2)cc1 | 102 | x | -35 | x
Cc1cc(NC(=O)CC2CCCCC2)nc2c1c(=O)oc1ccccc12 | 98 | 82 | x | 86
Cc1ccc(Cl)cc1NC(=O)C(C)n1nc(-c2ccccc2)ccc1=O (stereo unspecified) | 100 | 98 | -26 | 83
CC(NC(=O)c1ccncc1)C1CC2CCC1C2 (stereo unspecified) | x | 106 | 27 | 90
Cc1ccc(CNC(=O)CCc2c(C)nc3c(c2C)c(=O)n(C)c(=O)n3C)cc1 | 103 | 88 | -8 | 95
CCOc1ccc(C(=O)NCc2nc3cccnc3n2Cc2cccc(OC)c2)cc1 | 102 | 89 | x | 79
CSc1ccc(/C=C2\CC/C(=C\c3ccc(SC)cc3)C2=O)cc1 | 171 | 107 | x | 96
N#CCCC1(CCC#N)S(=O)(=O)CC(c2ccccc2)CS1(=O)=O | x | 67 | -22 | 87
O=C(/C=C/c1ccco1)CC1(O)C(=O)Nc2ccccc21 (stereo unspecified) | 112 | 104 | -20 | 79
CC(C)COc1ccc(Br)cc1C(=O)O | 104 | 111 | -6 | 99
O=C(NCc1cc(F)cc2c1OCOC2)c1ccc(Oc2cc(Cl)cc(Cl)c2)o1 | 105 | 93 | -40 | 87
CC(C)NC(=O)CCCN1C(=O)c2ccccc2Sc2ncccc21 | 102 | 96 | -26 | 92
COC(=O)C1=C(C)NC2=C(C(=O)CC(c3ccc(OC)c(OC)c3)C2)C1c1ccc(OC)c(OC)c1 (stereo unspecified) | 96 | x | -30 | x
CCCCN(CCCNC(=O)c1ccc(Sc2ccc(Cl)cc2)c(NC(C)=O)c1)c1ccccc1 | 103 | 103 | x | 84
CCOc1cc(CNC2CC2)ccc1OC(F)F | x | 99 | -1 | 101
CCOC(=O)c1cccc2c1-c1ccccc1C2=O | 100 | 82 | -18 | 90
O=C(O)C1CC(c2ccc(F)cc2)=NO1 (stereo unspecified) | x | 129 | 2 | 87
CCN(CC)S(=O)(=O)c1cccc(C(=O)CN2C(=O)c3ccccc3OC(C)C2=O)c1 (stereo unspecified) | 106 | x | -21 | x
CCOc1ccc(NC(=O)C2CCCN(c3cnc4ccccc4n3)C2)cc1 (stereo unspecified) | 95 | x | -5 | x
CCOc1ccc2c(c1)c(=O)c(C(=O)c1ccc(CC)cc1)cn2CC(=O)Nc1ccc2c(c1)OCCO2 | 107 | 114 | -20 | 93
CCOc1ccc(NC(=O)Cn2c(=O)c(CNc3ccc(OC)cc3)cc3ccc(OC)cc32)cc1 | 100 | 91 | x | 86
Cc1ccc(Sc2ccc(N3CCCC(C(=O)Nc4ccc(F)c(Cl)c4)C3)nn2)cc1 (stereo unspecified) | 104 | 91 | -16 | 87
Cc1cccc(NC(=O)c2ccc3c(c2)N(C)C(=O)CO3)c1 | 96 | x | 8 | x
O=C(CN1CCOCC1)N1N=C(c2c(-c3ccccc3)c3cc(Cl)ccc3[nH]c2=O)CC1c1ccccc1Cl (stereo unspecified) | 107 | x | -18 | x
CC1CCN(S(=O)(=O)c2nnc(NC(=O)c3ccc(C(C)C)cc3)s2)CC1 | 104&115 | 110 | -5&0 | 85
COc1cccc(CCNC(=O)c2c(O)nc3cc(C)ccn3c2=O)c1 | 99 | 91 | -22 | 90
O/N=C1/C2C3CC4C5C3C1C5C1(OCCO1)C42 (stereo unspecified) | x | 84 | -23 | 92
O=C(Nc1ccc(-c2nc3cc(Cl)ccc3o2)cc1)c1cc([N+](=O)[O-])ccc1Br | 97 | x | -25 | x
O=C1CSc2ccc(C(=O)NCCC3=CCCCC3)cc2N1 | 104 | 121 | x | 85
COc1ccc(CNC(=O)C(=O)NCC(c2ccco2)S(=O)(=O)c2cccs2)cc1 (stereo unspecified) | 96 | 103 | x | 86
Cc1cc(C(F)(F)F)n2nc(N)nc2n1 | x | 105 | -6 | 92
CN(CC(=O)NC1CCCCCC1)S(=O)(=O)c1ccc2c(c1)c(=O)n(C)c(=O)n2C | 105 | 86 | 1 | 86
CC1=CC(=C(C#N)C#N)C=C(C)N1C(C)C | x | 95 | -16 | 88
CCOC(=O)c1c(NC(=O)c2cc(S(=O)(=O)C(C)C)c(SC)s2)sc(C)c1C | 96 | 83 | -10 | 80
O=C(Cn1c2ncccc2c(=O)n1-c1ccccc1)Nc1ccccc1 | 107 | x | -12 | x
COCCCNc1nc2ccccc2c2nc(CCn3c(C)nc4ccccc43)nn12 | 99 | x | 6 | x
Cc1cc2c(=O)n(CCOc3ccccc3)cnc2s1 | 119 | 102 | -26 | 87
Cc1ccc(Cl)cc1NC(C#N)c1ccccc1 (stereo unspecified) | 100 | 107 | -1 | 81
Cc1cccc(C(=O)N2CCCCC2CCN2CCCCC2)c1 (stereo unspecified) | 98 | 93 | -23 | 94
CC1=C(c2ccc(C)c(C)c2)S(=O)(=O)NC1=NCCc1ccc(S(N)(=O)=O)cc1 | 104 | x | -2 | x
O=C(CN1N=C(c2ccccc2)c2ccccc2S1(=O)=O)Nc1ccccc1 | 99 | x | -5 | x
COc1ccc(S(=O)c2ccccc2C(=O)O)cc1 (stereo unspecified) | 108 | 96 | -26 | 85
COc1ccc(-n2cc(C(=O)NC(C)c3ccccc3)c3ccccc3c2=O)cc1 (stereo unspecified) | 101 | 114 | x | 108
COc1ccccc1NC(=O)NCCCN1CCN(c2ccc(F)cc2)CC1 | 106 | 108 | 4 | 89
Cc1ccccc1NC(C)C(=O)N/N=C/c1cccs1 (stereo unspecified) | 98 | 87 | -62 | 64
FC(F)Sc1nc2ccccc2s1 | x | 95 | -5 | 87
N#Cc1cc(SCCC(=O)O)c(N2CCOCC2)cc1C#N | 106 | 106 | -43 | 100
CCOC(=O)c1c(C)n(-c2ccccc2)c2ccc(OC(=O)c3cc(OC)cc(OC)c3)cc12 | 106 | 95 | -54 | 90

Next part:
Structure | GIV-Gai inh | Sa growth inh | HCMV NEC inh | Sa growth inh second temp
Cc1ccc2c(=O)cc(CSc3ncn[nH]3)[nH]c2c1C | 120 | 84 | x | 91
CCOCCCNC(=O)C1c2c(n(C)c3ccccc23)SCC(=O)N1Cc1ccc(F)cc1 (stereo unspecified) | 102 | x | 3 | x
Cc1ccccc1CNC(=O)C1CCN(c2nnc(-n3c(C)ccc3C)s2)CC1 | 103 | 110 | -13 | 89
COc1ccc(OC)c(CCN=C2NS(=O)(=O)C(c3ccc(C)cc3)=C2C)c1 | 104 | 90 | x | 80
COc1ccc(S(=O)(=O)NCCN2CCNC2=O)cc1OC | 96 | 90 | 13 | 88
CN(C)C(=O)CSc1nnc(-c2ccccc2)n1-c1ccc(F)cc1 | x | 81 | -10 | 90
O=S(=O)(NCC1CCN(CCc2cccs2)CC1)c1cnc[nH]1 | 102 | 103 | -19 | 85
CCC(=O)NCC(c1ccc2c(c1)OCO2)N1CCOCC1 (stereo unspecified) | 101 | 98 | -15 | 93
Cc1ccc2cc3cc(C(=O)N4CCC(C)CC4)sc3nc2c1 | 104 | x | -41 | x
Cc1ccccc1C(=O)N1CCCCC1CO (stereo unspecified) | 97 | 87 | -15 | 104
O=C(NCc1cccc(Br)c1)C1CCN(c2nc3ccccc3nc2C(F)(F)F)CC1 | 106 | x | -19 | x
CCOC(=O)c1nn2c(C(F)(F)F)cc(-c3ccc(C)cc3)nc2c1Cl | 104 | 108 | -75 | 90
CCOC(=O)N1CCN(C(=O)C2CC(c3ccc(F)cc3)=NO2)CC1 (stereo unspecified) | 100 | 99 | -28 | 89
C=C(C)C(=O)OCc1ccc(C#N)cc1 | x | 113 | 6 | 95
O=C(/C=C/c1ccccc1)ON1C(=O)CCC1=O | x | 98 | 0 | 87
CCOc1ccc(Nc2cc(N3CCCCCC3)c3nonc3c2[N+](=O)[O-])cc1 | 107 | x | -16 | x
COc1ccccc1NC(=O)C(C)Nc1ccc(C)c(Cl)c1 (stereo unspecified) | x | 94 | -15 | 96
O=C1C(=O)N(CO)C(c2ccccc2)/C1=C(\O)c1ccccc1 (stereo unspecified) | x | 103 | -32 | 87
COCCNC(=O)CSc1nc(-c2ccc3c(c2)OCO3)nc2cc(=O)[nH]n12 | 98 | x | -34 | x
CCCN1Cc2cccc(C(=O)Nc3cccc(C(=O)OCC)c3)c2C1=O | 104 | 98 | 7 | 92
O=C(O)COc1ccc(S(=O)(=O)NCCc2ccccc2)cc1 | 100 | 93 | -13 | 87
COc1ccc(C2=NN(C(=O)CCCC(=O)O)C(c3ccc(Br)cc3)C2)cc1 (stereo unspecified) | 107 | x | -25 | x
CC(NC(=O)CCNS(=O)(=O)c1cccc2nsnc12)c1ccccc1 (stereo unspecified) | 104 | 103 | -82 | 85
COc1cc(NC(=O)Nc2ccccc2C)cc(OC)c1 | 105 | 106 | 11 | 98
CC1CC(C(F)(F)F)n2ncnc2N1C(=O)CSc1nc2ccccc2o1 (stereo unspecified) | x | 85 | -7 | 87
CC1CCCN(C(=O)c2cc(-c3ccccc3)n[nH]2)C1 (stereo unspecified) | 99 | 104 | 5 | 109
O=C(CN1CCc2ccccc21)Nc1ccc(SC(F)F)cc1 | x | 92 | -7 | 79
COc1ccc(C2CC(=O)C3=C(C2)Nc2ccccc2NC3c2ccc([N+](=O)[O-])cc2)cc1OC (stereo unspecified) | 99 | x | -50 | x
Cc1cccc(NC(=O)C2CCC(CNS(=O)(=O)c3ccc4c(c3)CCCC(=O)N4)CC2)c1C (stereo unspecified) | 101 | 79 | x | 78
CC1CSc2ccc(S(=O)(=O)N3CCCC3)cc2N(CC(=O)N(C)Cc2ccccc2)C1=O (stereo unspecified) | 98 | x | -17 | x
COc1ccc(Br)cc1CN(C)C(C)C(=O)Nc1ccc2c(c1)OCO2 (stereo unspecified) | x | 101 | -10 | 81
Cc1c(NC(=O)c2cc(-c3ccc(Br)cc3)on2)c(=O)n(-c2ccccc2)n1C | 100 | 117 | -23 | 89
CC(=O)OCc1ccc(/C=C(\C#N)S(C)(=O)=O)o1 | 96 | 72 | -25 | 88
CCCCOc1ccc(S(=O)(=O)NCc2csc(-c3ccc(OC)cc3)n2)cc1 | 97 | 105 | -18 | 88
CCOc1ccc(-c2nn3c(Cc4ccc(OC)cc4)nnc3s2)cc1 | 107 | x | -1 | x
O=C1C=C(OCc2ccccc2)CN1 | 103 | 84 | -8 | 83
CCN(CC(=O)Nc1ccc(NC(C)=O)cc1)C(=O)c1n[nH]c(=O)c2ccccc12 | x | 90 | 0 | 100
COc1ccc(C(=O)Oc2ccc(C=C3C(=O)NC(=O)NC3=O)cc2Cl)cc1 | 76* | x | 76* | x
COc1ccc(CNC(=O)c2cccc(C3CCCN(C(=O)NC(C)C)C3)c2)cc1 (stereo unspecified) | 108 | x | -9 | x
CCc1c(C)sc2c1CCN(C(=O)Nc1ccc(OC)c(OC)c1)C2c1ccccc1 (stereo unspecified) | 100 | x | -13 | x

Of the compounds above, 11 have two or more sulfur atoms.
Structure | GIV-Gai inh | Sa growth inh | HCMV NEC inh | Sa growth inh second temp
CSc1ccc(/C=C2\CC/C(=C\c3ccc(SC)cc3)C2=O)cc1 | 171 | 107 | x | 96
N#CCCC1(CCC#N)S(=O)(=O)CC(c2ccccc2)CS1(=O)=O | x | 67 | -22 | 87
CC1CCN(S(=O)(=O)c2nnc(NC(=O)c3ccc(C(C)C)cc3)s2)CC1 | 104&115 | 110 | -5&0 | 85
COc1ccc(CNC(=O)C(=O)NCC(c2ccco2)S(=O)(=O)c2cccs2)cc1 (stereo unspecified) | 96 | 103 | x | 86
CCOC(=O)c1c(NC(=O)c2cc(S(=O)(=O)C(C)C)c(SC)s2)sc(C)c1C | 96 | 83 | -10 | 80
CC1=C(c2ccc(C)c(C)c2)S(=O)(=O)NC1=NCCc1ccc(S(N)(=O)=O)cc1 | 104 | x | -2 | x
FC(F)Sc1nc2ccccc2s1 | x | 95 | -5 | 87
O=S(=O)(NCC1CCN(CCc2cccs2)CC1)c1cnc[nH]1 | 102 | 103 | -19 | 85
CC(NC(=O)CCNS(=O)(=O)c1cccc2nsnc12)c1ccccc1 (stereo unspecified) | 104 | 103 | -82 | 85
CC1CSc2ccc(S(=O)(=O)N3CCCC3)cc2N(CC(=O)N(C)Cc2ccccc2)C1=O (stereo unspecified) | 98 | x | -17 | x
CCCCOc1ccc(S(=O)(=O)NCc2csc(-c3ccc(OC)cc3)n2)cc1 | 97 | 105 | -18 | 88
